Ba CapD inh = Bacillus anthracis CapD inhibitors, primary screen, biochemical, fluorescence intensity | CapD gamma-glutamyltranspeptidase (Bacillus anthracis Ames Ancestor) | purified CapD enzyme, fluorescence intensity read-out; active compounds read low; some hits fall short of the stated cut | z-score (test concentration not listed) | 140,000 tested, 0.23% active | AID 492967, 2010;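 active = z-score under -4 in either of two replicates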;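 also: stock transfer was 100 nL into about 40 µL; score is relative to mean and spread of the plate; one replicate is shown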
AID504770 = growth inhibition of E. coli YBA685, primary screen, V. cholerae RctB inhibitors | E. coli YBA685 rctB-dependent plasmid, OD600 growth, 3 h; active compounds read low | z-score (test concentration not listed) | 130,000 tested, 0.27% active | AID 504770, 2011;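 active = z-score under -2 on both plates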;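 also: wells of about 30 µL received 100 nL stock; score is relative to mean and SD of the test wells; the first replicate is given; strong numbers were not always called active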
The depositor's hits bear a star; nt = no result given; & = joins results of further samples.

Each structure is followed by: Ba CapD inh | AID504770
- CC(Sc1ncn[nH]1)C(=O)Nc1ccccc1C#N (centres undefined)
    0.035 | 0.15
- COC(=O)c1cscc1N
    0.03&1.87 | nt
- CCOC(=O)c1cc(-c2cccs2)on1
    1.63 | -0.25
- Nc1ccc(S(=O)(=O)Nc2nc(-c3ccccc3)cc(-c3ccccc3)n2)cc1
    -0.235 | nt
- Nc1cc(=O)nc(SCC(=O)N2CCCc3ccccc32)n1-c1ccccc1
    nt | -0.95
- CC1=C(C)CC(C(=O)NCc2ccc3c(c2)OCO3)C(C(=O)O)C1 (centres undefined)
    -0.25 | 0.25
- CCC1CCCCN1CC(=O)c1ccc(Cl)s1 (centres undefined)
    nt | -0.65
- CCC1(CC)Cc2ccccc2C(c2c(C)[nH]n(-c3ccccc3)c2=O)=N1
    -0.29 | nt
- CC1(c2ccccc2)CC(C)(C)N(C(=O)CSc2ncn[nH]2)c2ccccc21 (centres undefined)
    0.05 | -0.1
- O=C(c1ccc2cc[nH]c2c1)N1CCN(C(=O)c2ccccc2O)CC1
    1.06 | nt
- NC(=O)CSc1sc(=S)sc1SCC(N)=O
    -1.14 | -0.9
- CN(C(=O)[C@H]1[C@@H]2C[C@@H]3[C@H]1C(=O)O[C@@H]3C2)c1ccccc1Cl
    -0.86 | -1.15
- O=[N+]([O-])c1ccc(Cl)c(N=Cc2nc(-c3ccc(Br)cc3)oc2O)c1
    0.9 | nt
- Cc1ccc(S(=O)(=O)N2CCCC2C(N)=O)cc1 (centres undefined)
    nt | -0.4
- CC(=O)Nc1ccc(S(=O)(=O)NCCCN2CCN(Cc3ccccc3)CC2)cc1Cl
    -0.405 | nt
- CCc1ccc(-n2nnc(C(=O)Nc3ccccc3)c2C)cc1
    nt | -1.05
- Cc1cccc(-n2c(=O)c3c4c(sc3n3c(=S)[nH]nc23)CCCC4)c1
    1.13 | 0.05
- Cc1cccc(N2CCN(C(=O)OCCc3c(C)cc(C)cc3C)CC2)c1
    -0.34 | nt
- CC(Oc1ccccc1)C(=O)Nc1nnc(C2CCCCC2)s1 (centres undefined)
    -0.165 | -0.9
- Nc1nc(N)c2nc(-c3ccccc3)c(N)nc2n1
    -0.04&0.095 | nt
- CCOC(=O)Nc1ccc2c(c1)N(C(=O)OCC)c1ccccc1CC2
    -0.475 | nt
- O=C(Nc1ccc(Cl)cc1)C1C2CCCCC21 (centres undefined)
    nt | 2.05
- CC(C)=CC1C(C(=O)OCN2C(=O)C3=C(CCCC3)C2=O)C1(C)C (centres undefined)
    0.62 | nt
- O=c1/c(=C/c2ccc(-c3cccc(C(F)(F)F)c3)o2)sc2nc(-c3ccncc3)nn12
    nt | -2.55
- O=C(Nc1cccnc1)c1cc2nc(C3CC3)cc(C(F)(F)F)n2n1
    0.565 | -0.45
- Cc1ccc(S(=O)(=O)N(CCO)CCO)cc1
    -0.1 | -0.75
- CCCCCCNC(=O)c1ccc(N2CC3CC(C2)c2cccc(=O)n2C3)c(NS(=O)(=O)c2ccc(OC)cc2)c1 (centres undefined)
    -0.51 | nt
- Cc1ccnc(NS(=O)(=O)c2ccc(NC(=O)c3ccccc3Br)cc2)n1
    -0.285 | 1.25
- CCC(Sc1nc2ccc(Br)cc2c2nc3ccccc3n12)C(=O)NCC1CCCO1 (centres undefined)
    -0.03 | -0.1
- Cc1oc(S(=O)(=O)N2CCOCC2)cc1-c1nc(-c2ccc(C(C)(C)C)cc2)no1
    -0.27 | -1.05
- COc1cccc(NC(=O)C2CC3CCCN3C23C(=O)N(C)c2ccccc23)c1 (centres undefined)
    0.54 | 0.45
- O=c1cc(-c2ccccc2)oc2cc(O)c(O)c(O)c12
    nt | 1.3
- NC(=O)c1ccccc1NC(=O)c1ccccc1
    0.505 | 0.9
- Nc1ccccc1-c1n[nH]c(=S)[nH]c1=O
    -1.36&-1.36 | nt
- C=CCn1c(SCC(=O)N(CC)CC)nc(O)cc1=O
    -0.3 | -0.75
- O=C(NCCCN1CCOCC1)Nc1noc2c1COc1ccccc1-2
    0.285 | 0.5
- CCn1c2ccccc2c2cc(C3N(c4ccccc4)CCN3c3ccccc3)ccc21
    1.38 | nt
- Cc1ccc2nc(C)cc(NC3CCCCC3)c2c1
    -0.545 | 0.35
- OCCNC(=S)NCc1ccccc1
    -0.55 | nt
- N#Cc1ccccc1NC(=O)COC(=O)c1ccco1
    nt | -0.6
- Cc1nc2c3ccccc3n3c(CCCC(=O)NCC4CCCO4)nnc3n2n1 (centres undefined)
    -0.155 | -0.55
- COc1ccc(CN(C2CCCC2)S(=O)(=O)c2ccc(-n3cnnn3)cc2)cc1
    nt | -0.3
- COc1ccc(OC)c(-n2c(=S)[nH]c3cc(C(=O)NCc4ccc(F)cc4)ccc3c2=O)c1
    0.075 | -0.15
- CN(C)c1ccc(C2C3=C(CC(C)(C)CC3=O)Nc3ccccc3N2C(=O)c2ccc(F)cc2)cc1 (centres undefined)
    -1.06 | nt
- COc1cc(C2N(c3ccc(C)cc3)CCN2c2ccc(C)cc2)cc(OC)c1OC
    -0.37 | nt
- COc1ccc(C2(O)CCN(CC(=O)NC(C)(C)C)CC2)c(OC)c1
    nt | 0
- CCCNC(=O)c1ccc2ccccc2c1
    73.7 | -0.75
- COc1cc(C2C(C#N)=C(N)Oc3n[nH]c(-c4cccc([N+](=O)[O-])c4)c32)cc(OC)c1OC(=O)N1CCOCC1 (centres undefined)
    0.815 | nt
- Cc1csc2ncnc(N3CCN(C(=O)Nc4ccc(OC(F)(F)F)cc4)CC3)c12
    -0.5 | -0.45
- CCCOC(=O)C1=C(C)NC2=C(C(=O)CC(c3ccc(OC)c(OC)c3)C2)C1c1ccc([N+](=O)[O-])cc1 (centres undefined)
    -0.64 | nt
- O=C(Nc1nc2c(s1)C(=O)NCCC2)c1ccccc1
    5.18 | 0.5
- O=C(CN1C2=NCCCN2c2ccccc21)c1cccc2ccccc12
    -0.5 | nt
- O=C(COC(=O)C1(c2ccccc2)CC1)Nc1nnc(-c2ccccc2)o1
    nt | 0.5
- Cc1ccc(S(=O)(=O)NCC(=O)OCc2cc(=O)n3cc(C)ccc3n2)cc1
    nt | 1.3
- CC(=O)NC1(c2ccccc2F)CCN(CC(=O)N2CCN(C(=O)c3ccco3)CC2)CC1
    nt | -0.6
- CC1CCCN(C(=O)C2c3ccccc3C(=O)N(C)C2c2c[nH]c3ccccc23)C1 (centres undefined)
    -1.1 | 1.35
- C=CCN1C(=O)C(C#N)=C(C)/C(=C\c2ccc(-c3cccc(C(=O)O)c3)o2)C1=O
    -0.88 | -1.2
- CCc1cccc(OCC(=O)Nc2ccc(S(=O)(=O)Nc3nccs3)cc2)c1
    16 | 2.15
- COC(=O)c1cccc(S(=O)(=O)N(C)C)c1
    -0.475 | -1.3
- OCCNc1ccc(Cl)nn1
    4.26 | -0.65

Full records, looked up by structure. Order of values: Ba CapD inh | AID504770
CCn1c2ccccc2c2cc(C3N(c4ccccc4)CCN3c3ccccc3)ccc21 is listed with 1.38 | nt
OCCNc1ccc(Cl)nn1 is listed with 4.26 | -0.65
COc1cc(C2N(c3ccc(C)cc3)CCN2c2ccc(C)cc2)cc(OC)c1OC is listed with -0.37 | nt
O=C(Nc1nc2c(s1)C(=O)NCCC2)c1ccccc1 is listed with 5.18 | 0.5

Fetched by compound from the entries so far (two):
Each structure is followed by: Ba CapD inh | AID504770
- N#Cc1ccccc1NC(=O)COC(=O)c1ccco1
    nt | -0.6
- CCC(Sc1nc2ccc(Br)cc2c2nc3ccccc3n12)C(=O)NCC1CCCO1 (centres undefined)
    -0.03 | -0.1

(next part)
Each structure is followed by: Ba CapD inh | AID504770
- C/C(=N\NC(=O)Cc1cccs1)c1ccc(S(=O)(=O)N(C)C)cc1
    nt | 0.7
- O=C(CCCN1C(=O)CSc2ncccc21)N1CCCCC1
    0.035 | -0.75
- COc1ccc(-c2cc3cc(OC)c(OC)cc3c(Cc3cccc4ccccc34)n2)cc1OC
    0.565 | nt
- N#C/C(=C\C=C\c1ccco1)C(N)=S
    -12.3* | 1.25
- c1ccc(-c2ccc(-c3nc4ccc(-c5ccc6nc(-c7ccc(-c8ccccc8)cc7)c(-c7ccccc7)nc6c5)cc4nc3-c3ccccc3)cc2)cc1
    0.06 | nt
- CCc1ccc(S(=O)(=O)N(C(C)=O)c2ccc3oc(C)c(C(C)=O)c3c2)cc1
    -2.21 | nt
- CC1(C)CC(=O)C2=C(C1)N(c1ccc(F)cc1)C(=O)C2(O)C(F)(F)F (centres undefined)
    -1.52 | 1
- COc1ccccc1/C=C/CNn1c(-c2cc(OC)c(OC)c(OC)c2)nc2ccccc2c1=O
    0.195 | nt
- NNC(=O)c1csc(CS(=O)(=O)Cc2ccco2)n1
    -0.225 | -0.15
- Cc1c(Br)c(C(F)(F)F)nn1CC(=O)Nc1sc2c(c1C#N)CCCC2
    0.005 | nt
- CNC(=O)c1sc(=S)n(-c2ccccc2)c1N
    -2.59 | 1
- CC(C)N(C(=O)CSc1nc(O)cc(=O)[nH]1)C(C)C
    nt | -0.1
- N#Cc1c2c(c(-c3ccco3)[nH]c1=O)CCCC2
    1.83 | 0.05
- CSc1sc(C(=O)N2CCOCC2)c2c1S(=O)(=O)N(C)c1ccccc1-2
    -0.09 | 1
- Cc1ccc(NC2=NCCS2)cc1C
    0.14 | -1.25
- CCCC(=O)Nc1nonc1-c1ccccc1
    0.165 | 0.2
- CCCCc1ccc2nc(NC(=O)C3=NN(C)C(=O)CC3)sc2c1
    nt | -1.1
- COc1ccc(CNC(=O)C2CC(=O)N(C3CCCC3)C2)cc1 (centres undefined)
    0.58 | -0.6
- Cc1cccc(C)c1NC(=O)c1sc(=S)n(CCc2ccccc2)c1N
    0.595 | nt
- CCOC(=O)c1c(N2C(=O)C=CC2=O)sc2c1CCC(C)C2 (centres undefined)
    0.835 | 2.8
- c1ccc2c(c1)ncn1c3ccccc3nc21
    nt | -0.2
- O=C(O)C1Cc2c([nH]c3ccccc23)C(c2ccc(Cl)cc2Cl)N1 (centres undefined)
    4.38 | nt
- CC(C)(C)c1cccc(OCCON2C(=O)CCC2=O)c1
    -0.41 | -1.2
- CN(C)C(=O)Oc1cc(=O)oc2ccccc12
    -1.15 | 1.75
- Cc1noc(C)c1S(=O)(=O)N1CCC(C)CC1
    0.045 | -0.45
- C/C(CC1(O)C(=O)N(C)c2ccccc21)=N\O (centres undefined)
    -0.45 | -0.6
- Cc1nc(N2CCOCC2)c2c(C)c(C(=O)Nc3cc(F)ccc3C)sc2n1
    -0.005 | nt
- Cc1cc(C)c2c(c1)/C(=N/NC(=O)CCN1CCOCC1)CCC2
    nt | -0.6
- CCOC(=O)N1CCC(NC(=O)CCNC(=O)Cn2ccc3ccccc3c2=O)CC1
    1.89 | -0.35
- O=C(Nc1ccc(Br)cc1F)C1CCN(c2nnc(-n3cccc3)s2)CC1
    -0.545 | 0.05
- CC(=O)Nc1ccc(S(=O)(=O)NCCC2=CCCCC2)cc1
    -1.14 | nt
- CCOc1ccc(N/C(N)=N/c2nc(C(F)(F)F)cc(C(F)(F)F)n2)cc1
    -0.42 | -0.2
- COc1ccccc1NC(=O)C1=C(C)NC2=C(C(=O)CCC2)C1c1cc2c(cc1Br)OCO2 (centres undefined)
    nt | -0.05
- COC(=O)c1ccccc1NC(=O)CN(C)Cc1ccccc1
    nt | 0.3
- COC(=O)C(C(=O)Nc1cc(C)on1)C1CCCC1 (centres undefined)
    -0.725 | -0.8
- Cc1ccccc1CCOC(=O)NNC(=O)CSCc1nc(-c2ccccc2)cs1
    0.07 | nt
- COc1cccc(-c2nc(CS(=O)(=O)CC(=O)NC3CCCC(C)C3C)c(C)o2)c1 (centres undefined)
    69.4 | 1.7
- CCN1CCN(CCCNC(=O)c2cnn(-c3ccc(C)cc3C)c2C2CCNCC2)CC1
    -1.17 | 0.75
- O=C1CSC(CC(=O)Nc2ccccc2)=N1
    nt | 0
- N#CC1=C(SCC(=O)Nc2ccccc2)NC(=O)CC1c1ccc(Br)cc1 (centres undefined)
    -0.38 | nt
- O=C(O)c1ccc(/C=N/NC(=O)c2ccc([N+](=O)[O-])cc2Cl)cc1
    -0.66 | nt
- Nc1nc(N)nc(Cn2c(-c3nonc3N)nc3ccccc32)n1
    -0.795 | nt
- O=C(Nc1ccc(I)cc1)C1(S(=O)(=O)c2ccc(Cl)cc2)CC1
    1.17 | -0.1
- CSc1ncc(C(=O)NC2CC2)c(-c2ccccc2)n1
    -1.74 | 0.9
- Cc1nc2sc(C(=O)N(C3=NC(C)CS3)c3ccc(Cl)cc3)c(C)c2c(=O)[nH]1 (centres undefined)
    nt | -0.9
- CCCn1cnc2sc(C(=O)N3CCC(Cc4ccccc4)CC3)c(C)c2c1=O
    -0.21 | nt
- Cc1cccc(Nc2ncnc3c2cnn3-c2ccccc2)c1
    -0.44 | -0.65
- COC(=O)c1ccccc1NC(=O)c1sc2ncnc(N3CCN(c4ccccn4)CC3)c2c1C
    0.12 | nt
- Cc1ccccc1N1CCN(C(=O)OCCc2cccc(Cl)c2)CC1
    -0.33 | nt
- NC(=O)COC(=O)c1cccc(I)c1
    -0.69 | 0.2
- O=C(c1cn[nH]c1)N1CCN(C(c2ccccc2)c2ccc(Cl)cc2)CC1 (centres undefined)
    -0.78 | nt
- FC(F)(F)c1cc(-c2cccs2)no1
    0.155 | -0.25
- N#CCn1c(C(F)(F)F)nc2ccccc21
    0.08 | -0.5
- COc1ccc(N/C=C/C(=O)c2ccc3noc(-c4ccccc4)c3c2)cc1
    -2.08 | nt
- CC(=O)Nc1cccc(NC(=O)C2CCCN2C(=O)Nc2ccccc2Cl)c1 (centres undefined)
    nt | 2.6
- O=S1(=O)CC2N=C(Nc3ccc(Cl)c(Cl)c3)SC2C1 (centres undefined)
    -0.075 | -1.1
- COc1cccc(C2C(C#N)=C(N)OC3=C2C(=O)CC(c2ccco2)C3)c1OCc1ccc(F)cc1 (centres undefined)
    0.3 | nt
- COC(=O)c1ccc(-n2nnnc2SCC(=O)c2ccc(O)c(O)c2)cc1
    -0.285 | 0.6

Source: PubChem BioAssay (ICCB-Longwood Screening Facility, Harvard Medical School)
